Screening results: PubChem, Fisher Drug Discovery Resource Center
NPYLR7 ag = activates Aedes aegypti NPYLR7 receptor | hit rate 0.15% among 270,000 | activation, % at 10 µM | HEK293T NPYLR7/Galpha15, GCaMP6s calcium fluorescence; in the data active = activation above about 40%;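 also: 0% = vehicle and 100% = reference agonist at the receptor; some compounds past the cut are filed as inactive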
NPYLR7 ag max-min = second read-out of NPYLR7 ag, no call of its own (marks repeat the call); activation, %; measured here: Max-Min RFU normalised activation; some inactives read as strong as hits;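 span of the calcium signal over five minutes; 0% = vehicle and 100% = native peptide agonist; compound fluorescence can raise it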
Starred values were filed as active, the others as inactive; & = joins results of further samples. An excerpt; the hit share may differ from the screen's.

SMILES	NPYLR7 ag	NPYLR7 ag max-min
COc1cc(C)ccc1OCC(=O)N1CCC(NC2CCCC2)CC1	-1	-9
C=CCn1c(SCc2nnc(-c3cccs3)o2)nc2scc(C3CC3)c2c1=O	-2	-4
CN(C)CCN(Cc1c(-c2ccc(F)cc2)noc1N1CCOCC1)C(=O)c1ccco1	-9	10
CC(NC(=O)c1cc2c(s1)-c1ccccc1OC2)c1ccc(Br)cc1 (stereo not given)	-10	0
CC(C)(C)n1ncc2c(=O)n(NC(=O)COc3ccc(Cl)cc3Cl)cnc21	14	10
COc1cccc(-c2cc(C(=O)NCCCN3CCOCC3)n3nc(C(C)(C)C)cc3n2)c1	8	4
COc1ccccc1N1CCN(c2ccc(NC(=O)C(c3ccccc3)c3ccccc3)cc2C(=O)NC(C)c2ccccc2)CC1 (stereo not given)	1	5
Cc1nnc(SCCCn2c(N3CCCC3)nc3c2c(=O)[nH]c(=O)n3C)s1	16	10
O=C(Nc1ccc(N2CCOCC2)cc1N1CCOCC1)C1CC(=O)N(c2ccccc2Cl)C1 (stereo not given)	-3	0
COc1ccc2nc(-c3ccc(C)c(NS(=O)(=O)c4ccc5ccccc5c4)c3)cn2n1	-12	-19
Cc1nonc1C(=O)N(CCN1CCCCC1)CC1CCCN(C2CCCC2)C1 (stereo not given)	20&2	13&0
c1ccc(SCCN2CCN(CCSc3ccccc3)CC2)cc1	13	9
COCCOCC(=O)N1CCN(c2ccc(NC(=O)c3ccc(C)cc3)cn2)CC1	4	0
COc1ccc(-c2ncc(Cl)cn2)c2ccc(C)nc12	4	-2
Cc1cccnc1C1=NOC(Cc2ccccc2)C(=O)N1Cc1ccc(F)cc1 (stereo not given)	8	5
CCN(CC)c1onc(-c2ccccc2)c1CN(CC(C)C)C(=O)c1cccs1	5	2
Cc1cccc(C(=O)N2CCC(C(NC(=O)c3cccs3)C(=O)NC3CC3)CC2)c1 (stereo not given)	-7	-5
O=C(CCS(=O)(=O)c1ccccc1)OCc1cc(-c2cc3ccccc3o2)on1	2	0
COc1ccc(Oc2coc3c4c(ccc3c2=O)OCN(C2CCS(=O)(=O)C2)C4)cc1 (stereo not given)	-7	-11
CC(C(=O)N(C)C)N(C)Cc1cccn1S(=O)(=O)c1ccccc1 (stereo not given)	1	0
COc1ccc(CN(C)C(=O)c2cc3n(n2)CCN(C)C3)c2cccnc12	5	4
CC(CC#N)N(C)C(=O)Nc1cccc2cccnc12 (stereo not given)	-7	-7
O=C(NN=Cc1cccc([N+](=O)[O-])c1)c1cc(-c2cccc3ccccc23)n[nH]1	1	5
COC(=O)C1=C(C#N)NC(C)=C(C(=O)OC(C)C)C1c1cccc([N+](=O)[O-])c1 (stereo not given)	9	1
Cc1cc(C)n(C2CCN(Cc3ccc(-c4ccn[nH]4)o3)C2)n1 (stereo not given)	1	3

A different layout for some results above:
SMILES,NPYLR7 ag,NPYLR7 ag max-min
COc1ccc2nc(-c3ccc(C)c(NS(=O)(=O)c4ccc5ccccc5c4)c3)cn2n1,-12,-19
Cc1nonc1C(=O)N(CCN1CCCCC1)CC1CCCN(C2CCCC2)C1 (stereo not given),20&2,13&0

Profiles, quoted from the list. Order of screens: NPYLR7 ag	NPYLR7 ag max-min
Cc1cccnc1C1=NOC(Cc2ccccc2)C(=O)N1Cc1ccc(F)cc1 (stereo not given) is entered as 8	5
Cc1nnc(SCCCn2c(N3CCCC3)nc3c2c(=O)[nH]c(=O)n3C)s1 is entered as 16	10

More results.
SMILES	NPYLR7 ag	NPYLR7 ag max-min
CC(COc1ccccc1)NCc1nnc(-c2ccccc2)o1 (stereo not given)	16	10
O=C1NC(=S)NC(=O)C1=Cc1cn(Cc2ccc([N+](=O)[O-])cc2)c2ccccc12	9	8
COc1ccc(C(N)CC(=O)N2C[C@H]3CC=CC[C@H]3C2)cc1OC (stereo not given in full)	5	2
NC(=O)C1CCN(C(=O)c2cc(=O)c(OCc3ccc(F)cc3)co2)CC1	2	2
c1nc2nc3c(c(N4CCCCCCCC4)n2n1)CCCC3	11	3
COC(=O)c1ccc2c(c1)C1CC(C)(O2)N(c2cccc(C)c2)C(=O)N1 (stereo not given)	-2	2
O=C(Cc1csc(N2CCCC2=O)n1)NC1(c2ccc(Cl)cc2)CCOCC1	-2	1
O=C(COCc1ccccc1)NCCNc1nc(-c2ccc(Cl)cc2)nc2ccccc12	9	10
O=[N+]([O-])c1c(Nc2cccc(C(F)(F)F)c2)ccc2nonc12	0	-5
Cc1n[nH]c2ncc(C(=O)O)c(=O)n12	-19	-21
C=CCN(C)C(=O)c1sc2cc(OC)c(OC)cc2c1Cl	-1	-2
CC(C)NC(=O)NC(=O)CSc1nncs1	-1	6
CCOc1ccc(N2CC(c3nc4ccccc4n3CC(C)C)CC2=O)cc1 (stereo not given)	-1	6
Cc1cc(C)n(-c2ccc(C(=O)NCc3ccc4c(c3)OCO4)cc2)n1	17	8
COCCn1cc(C(=O)NCCc2ccccc2)c2nn(-c3ccccc3)c(=O)c-2c1	4	3
O=C(Nc1ccc(F)cc1)C(=O)N1CCC(N2CCCC2=O)CC1	6	3
COc1ccc(CCNC(=O)c2cccnc2N2CCN(C(=O)c3ccccn3)CC2)cc1OC	4	1
O=C(Nc1ccc(F)cc1F)N1CCCCC1CN1CCOCC1 (stereo not given)	5	1
C=CCn1c(SCC(=O)Nc2ccc(OC)cc2)nc2scc(-c3ccco3)c2c1=O	-3	-9
CC(=O)Nc1ccc(CNC(=O)c2cccc(C)c2)cc1	-1	-1
CC(C)c1nc2cc(C(=O)N3CCC(c4nc5ccc(F)cc5[nH]4)CC3)ccc2o1	9	-3
CNC(=O)NC(=O)C(C)N(C)Cc1ccc(Br)o1 (stereo not given)	0	-1
Cc1cc(C)n(CCCC(=O)Nc2cnc3n2CCCC3)n1	8	4
COC(=O)c1ccc(CC2(C)C(=O)Nc3c(Cl)ccc(Cl)c32)o1 (stereo not given)	0	-1
CCOC(=O)c1cnc(-c2ccc(OC)c(OC)c2)nc1N(CC)CC	-3	-5
New compounds follow.
SMILES	NPYLR7 ag	NPYLR7 ag max-min
COc1ccc(/C=C/C(=O)Nc2ccc(Nc3cc(-n4cccn4)ncn3)cc2)cc1OC	-7	-12
CCOC(=O)c1nn(CCC(C)C)c2c1CN(C(=O)CCc1cccs1)CC2	11	2
COc1cccc(-c2cnc(-c3ccc(CNC(=O)c4c(C(C)C)cc(C(C)C)cc4C(C)C)cc3)[nH]2)c1	7	1
CCN(CC)CCCC(C)NC(=O)c1cc(-c2ccc(OC)cc2OC)nn1-c1ccc([N+](=O)[O-])cc1 (stereo not given)	-3	1
Cc1ncc(C(=O)N2C[C@@H]3[C@H](C2)[C@H]2CC[C@@H]3O2)c(-c2ccccc2)n1	8	5
O=C(CCl)N1CCN(S(=O)(=O)c2ccc(F)cc2)CC1	-2	-6
COc1cn(CC(=O)Nc2cc(C)cc(C)c2)c(CSc2ncccn2)cc1=O	-7	-11
C/C=C/C=C/C(=O)N[C@@H]1CCCC[C@H]1N1CCOCC1	-15	-23
O=C(Cc1cscn1)N1CCc2c([nH]c3ccccc23)C1c1ccccc1F (stereo not given)	-2	-5
CC(C)(C)c1ccc(-c2n[nH]c(=S)o2)cc1	1	7
CC(=O)N(Cc1csc(COc2cccc(C)c2)n1)C(C)C	5	14
COc1cccc(COC(=O)c2ccccc2N(C)C(=O)C2CC2)c1	2	0
CC(=O)C1=C(c2ccccc2)N(C(C)=O)n2c(nnc2C2CCCCC2)S1	4	1
CN1N=C(C(=O)NCc2ccc3c(c2)CCCN3C)CCC1=O	-11	-17
CCC(=O)Cn1c(-c2ccccc2)c(C)sc1=O	11	7
O[C@@H]1C[C@H]2CN(Cc3ccc(SC4CCCCC4)o3)C[C@H]2C[C@@H]1O	0	-1
CS(=O)(=O)c1ccc(N2CCCC2)c([N+](=O)[O-])c1	2	10
COCC(=O)Nc1ccc(N(C)C)c(CN(CC2CCCO2)C(=O)c2cccc(F)c2)c1 (stereo not given)	2	10
Cc1cccc(CS(=O)(=O)NCCn2ccnc2C)c1	11	6
COc1ccc(-c2nc3ccc(C)cn3c2NC(C)(C)C)cc1	-2	4
O=C(c1cc2ccccc2c(=O)o1)N1C[C@H](Oc2ccccn2)[C@H]2C[C@@H]1CC[C@H]2N1CCOCC1	20	26
Cc1cccc(-n2nc(C)c(C(=O)NCc3cccnc3)c2C)c1	1	0
O=C(Nc1cccc(Cl)c1)N(CCCN1CCOCC1)Cc1cccc2ccccc12	1	7
Cc1nnc2ccc(SCC(=O)NC(c3ccccc3)c3ccc(Cl)cc3)nn12 (stereo not given)	17	9
CC(=O)Nc1ccc(Nc2cc(OC(C)C)nc(C)n2)cc1	7	5

Grouped by structure, those above containing a thiophene ring, fused or not
SMILES	NPYLR7 ag	NPYLR7 ag max-min
C=CCn1c(SCc2nnc(-c3cccs3)o2)nc2scc(C3CC3)c2c1=O	-2	-4
CC(NC(=O)c1cc2c(s1)-c1ccccc1OC2)c1ccc(Br)cc1 (stereo not given)	-10	0
CCN(CC)c1onc(-c2ccccc2)c1CN(CC(C)C)C(=O)c1cccs1	5	2
Cc1cccc(C(=O)N2CCC(C(NC(=O)c3cccs3)C(=O)NC3CC3)CC2)c1 (stereo not given)	-7	-5
C=CCN(C)C(=O)c1sc2cc(OC)c(OC)cc2c1Cl	-1	-2
C=CCn1c(SCC(=O)Nc2ccc(OC)cc2)nc2scc(-c3ccco3)c2c1=O	-3	-9
CCOC(=O)c1nn(CCC(C)C)c2c1CN(C(=O)CCc1cccs1)CC2	11	2

Next results follow.
SMILES	NPYLR7 ag	NPYLR7 ag max-min
CCOC(=O)C1=C(C)NC2=C(C(=O)CC(c3ccc(Cl)cc3)C2)C1c1ccc(OC)cc1 (stereo not given)	-2	-6
COc1ccc(C2NC(=S)NC3=C2CCCC3=C2SCCS2)cc1 (stereo not given)	2	0
Cc1nc(C(=O)OC2CCOC2=O)nn1-c1ccc(F)cc1 (stereo not given)	7	7
O=C(CSc1ncnc2sc3c(c12)CCC3)NCCN1C(=O)CSC1=O	2	9
O=C(c1cc(-c2cccs2)nc2ccccc12)N1CCN(Cc2ccncc2)CC1	6	-1
CN(Cc1ccco1)C(=O)C(C1CCCC1)N1CCN(C(=O)CCc2ccccc2)CC1 (stereo not given)	-3	33
O/N=C1/CCCc2nnc3c(c21)CCCC3	-12	-22
Cc1cccc(OCC(O)CN2C(=O)NC(C)(c3ccc(C(C)C)cc3)C2=O)c1 (stereo not given)	10	15
O=C1OC2(CCCC2)OC(=O)C1C(c1ccccc1)C1C(=O)OC2(CCCC2)OC1=O (stereo not given)	0	14
COCCNC(=O)c1ccc2c(=O)n(CCOC)c(SCC(=O)c3c[nH]c4ccccc34)nc2c1	-3	-11
COCCCN(CC(=O)N(CCc1ccc(OC)c(OC)c1)Cc1ccco1)S(=O)(=O)c1ccc(C)cc1	0	10
CCOC(=O)c1ccc2c(c1)nc(SCc1ccccc1Cl)n2Cc1ccccc1	-5	-7
Cc1cc(C(=O)NCCc2cn(-c3ccccc3)c3ccccc23)nn1C	11	2
COc1ccc(C2(C(=O)NCc3c(C)noc3C)CCCC2)cc1	-1	-1
CN1CCN(C(CNC2CC(C)(C)NC(C)(C)C2)c2cccs2)CC1 (stereo not given)	9	10
CCOc1ccc(CN2CCn3cccc3C2C)cc1CO (stereo not given)	13	3
CN(C)CCOC(=O)C12CC3CC(C1)CC(C(=O)OCCN(C)C)(C3)C2	2	-1
CCc1cc(N2CCN(c3ccccc3Cl)CC2)nc(SCc2cccc(C(=O)NCCOC)c2)n1	1	7
CN(C)C(=O)CN(C)c1nc(CN2CCCCC2)nc2sc3c(c12)CCCC3	7	7
CCn1nc(C)c(NC(=O)CN2CCCC(Oc3ccc(F)cc3)C2)c1C (stereo not given)	-5	-8
COCc1cc(N(C)CCc2ccc(OC)c(OC)c2)nc(SCc2ccc(C(=O)O)o2)n1	-10	0
CCN(CC)CCn1c2c(c(SCC(=O)Nc3cccc4ccccc34)nc1=O)CCC2	-3	-7
O=[N+]([O-])c1ccc(NS(=O)(=O)c2ccc(Br)cc2)cc1	0	-5
CC(CC(N)=O)NCc1ccc(C(C)C)cc1 (stereo not given)	6	4
COc1ccc(Cn2ccnc2CN(C(=O)c2ccc(Cl)cc2)c2ccccc2)cc1	14	26

Some of the entries so far, bar-delimited.
Compound | NPYLR7 ag | NPYLR7 ag max-min
COCCCN(CC(=O)N(CCc1ccc(OC)c(OC)c1)Cc1ccco1)S(=O)(=O)c1ccc(C)cc1 | 0 | 10
CCOC(=O)c1ccc2c(c1)nc(SCc1ccccc1Cl)n2Cc1ccccc1 | -5 | -7
Cc1cc(C(=O)NCCc2cn(-c3ccccc3)c3ccccc23)nn1C | 11 | 2
COc1ccc(C2(C(=O)NCc3c(C)noc3C)CCCC2)cc1 | -1 | -1
CN1CCN(C(CNC2CC(C)(C)NC(C)(C)C2)c2cccs2)CC1 (stereo not given) | 9 | 10
CCOc1ccc(CN2CCn3cccc3C2C)cc1CO (stereo not given) | 13 | 3

(cont.)
SMILES	NPYLR7 ag	NPYLR7 ag max-min
COc1ccccc1CNCCCCCCNCCCCCCCCNCCCCCCNCc1ccccc1OC	2	-27
CCOCCCN(CC(=O)N(Cc1cccn1Cc1ccccc1Cl)CC(C)C)C(=O)c1cccs1	-3	5
Cc1nccn1-c1ccc(NC(=O)C2CCCN(Cc3cc4ccccc4o3)C2)cc1 (stereo not given)	-6&14	-7&9
O=C(CSc1nnc(CCn2ccc(=O)[nH]c2=O)o1)NCC1CCCCC1	-2	-3
COC(=O)[C@@H]1CCCN1C(=O)Cc1ccc(N2CCC(NCc3cnc4ccccn34)CC2)cc1	1	-3
Oc1cc(OCCN2CCOCC2)ccc1-c1[nH]ncc1-c1ccccc1	3	0
Brc1cccc(-c2nnc(-c3cccc(Br)c3)o2)c1	4	6
CCOC(=O)c1c(C)n(OC)c2ccc3c(no[n+]3[O-])c12	3	1
COc1cccc(C(=O)N2CCCC(OCc3ccc(OC(F)(F)F)cc3)C2)c1 (stereo not given)	-6	-4
COc1ccc(C(O)C(=O)N(C)Cc2cnc3ccccc3c2)cc1 (stereo not given)	2	1
